OX1R FRET antag = antagonists of human orexin 1 receptor (OX1R); inhibition, % at 6.6 µM; O43613; OX1R-expressing cells, FRET antagonist read-out; 330,000 tested, 1.8% active; in the data active means inhibition mostly above about 38%, no sharp cut-off; inactive means mostly below about 40%;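 further: 0% = agonist challenge alone and 100% = reference antagonist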
Target sequence (O43613 whole entry, looked up): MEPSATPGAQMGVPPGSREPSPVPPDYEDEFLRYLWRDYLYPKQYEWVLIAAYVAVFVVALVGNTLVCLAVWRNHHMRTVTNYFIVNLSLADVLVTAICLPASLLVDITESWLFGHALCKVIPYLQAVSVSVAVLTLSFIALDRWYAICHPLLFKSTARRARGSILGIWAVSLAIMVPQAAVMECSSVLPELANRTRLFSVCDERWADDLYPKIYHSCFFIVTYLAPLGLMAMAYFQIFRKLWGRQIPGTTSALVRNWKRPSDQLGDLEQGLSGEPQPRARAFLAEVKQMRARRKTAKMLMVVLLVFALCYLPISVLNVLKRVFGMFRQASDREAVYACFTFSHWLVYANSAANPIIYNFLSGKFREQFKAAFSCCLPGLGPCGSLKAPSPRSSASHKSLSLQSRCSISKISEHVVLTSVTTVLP
STK33 inh = inhibitors of human STK33 kinase; inhibition, % at 10 µM; 320,000 tested, 0.073% active; Q9BYT3; purified STK33, MBP phosphorylation, ADP-Glo luminescence; AID 2661;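 active means inhibition at or above 25%, using the most active replicate where run in duplicate; inactive means inhibition below 25%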
Target sequence (Q9BYT3 whole entry, looked up): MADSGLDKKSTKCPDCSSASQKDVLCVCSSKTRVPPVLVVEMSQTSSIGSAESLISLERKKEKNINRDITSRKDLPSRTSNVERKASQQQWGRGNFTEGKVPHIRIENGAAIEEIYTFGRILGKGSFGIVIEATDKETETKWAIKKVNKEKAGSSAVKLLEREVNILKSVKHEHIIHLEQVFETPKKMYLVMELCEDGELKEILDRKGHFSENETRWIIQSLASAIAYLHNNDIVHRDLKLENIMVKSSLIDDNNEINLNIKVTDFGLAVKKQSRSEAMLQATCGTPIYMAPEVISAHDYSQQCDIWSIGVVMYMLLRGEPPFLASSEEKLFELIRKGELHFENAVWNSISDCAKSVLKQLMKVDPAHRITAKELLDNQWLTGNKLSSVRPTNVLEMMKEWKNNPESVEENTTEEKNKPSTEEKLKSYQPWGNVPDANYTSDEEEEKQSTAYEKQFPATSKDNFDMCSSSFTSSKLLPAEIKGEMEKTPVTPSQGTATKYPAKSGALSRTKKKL
Active calls of the source: *; x = not tested or not shown.

No.	molecule	OX1R FRET antag	STK33 inh
1	Cc1ccc(NC(=O)Cn2c(=O)n(CCC(=O)NC3CCN(Cc4ccccc4)CC3)c(=O)c3ccccc32)cc1	7.6	-0.6
2	CN(C)S(=O)(=O)c1ccc(Cl)c(C(=O)NC2CCCCCCC2)c1	21.2	-1.7
3	CCC1(c2ccc(F)cc2)NC(=O)N(CC(=O)Nc2ccc(C)c(S(=O)(=O)N3CCOCC3)c2)C1=O (stereo not given)	9.1	-1.4
4	CC(Sc1nc2c(c(=O)[nH]1)CCCC2)C(=O)Nc1ccc(S(N)(=O)=O)cc1 (stereo not given)	0.1	3.0
5	CC(C)CC1NC(=O)N(CC(=O)N2CCN(S(=O)(=O)c3ccccc3)CC2)C1=O (stereo not given)	25.2	-0.9
6	CCCNC(=O)Nc1ccc2c(c1)nc(C)n2C	6.5	-1.0
7	COc1ccc(CCN2CC(C(=O)N3CCCCCC3)CCC2=O)cc1 (stereo not given)	30.8	-1.3
8	CCN1C(=O)/C(=C/c2cc(C)n(C)c2C)SC1=Nc1ccc(OC)cc1	126.8*	-1.0
9	Cc1cccc(OCC(=O)N2CCN(C(=O)c3cccs3)CC2)c1	4.8	-0.6
10	Cc1cc(NC(=O)c2cc(-c3ccco3)on2)no1	8.5	-1.1
11	O=C(CCc1ccccc1)NCCC1=CCCCC1	3.1	-1.4
12	CCCCc1nnc(NC(=O)C2CC(=O)N(c3ccc(C)cc3)C2)s1 (stereo not given)	1.8	-0.1
13	CCN1CCN(c2ccc(S(=O)(=O)N3CCOCC3)cc2NC(=O)/C=C/c2ccc(C)cc2)CC1	8.6	x
14	Cc1nc([N+](=O)[O-])c(SCC(N)=O)n1Cc1ccccc1	2.8	-0.9
15	CCCCC(=O)NC(=S)Nc1cc(C(=O)O)ccc1OC	13.8	-0.4
16	CCOc1cc(CC(=O)N[C@@H](CC(C)C)c2ccccc2N2CCCCC2)ccc1C(=O)O	14.2	-4.1
17	CC1CC(=S)Nc2ccccc2S1 (stereo not given)	13.6	-1.2
18	Cc1ccc(-n2c(O)c(C=Nc3cc(C)on3)c3ccccc3c2=O)c(C)c1	12.2	-1.1
19	CCCN1CCN(CCCNC(=O)C(CC)n2nc(C)c3sc4ccccc4c3c2=O)CC1 (stereo not given)	8.4	0.2
20	CCCCCCn1cnc2c(c1=O)c1nc3ccccc3nc1n2Cc1cccs1	27.6	-0.9
21	COc1ccc(NC(=S)Nc2ccc(OC)cc2OC)c(OC)c1	15.5	-0.4
22	COc1ccccc1C(=O)Nc1ccccn1	11.3	-0.2
23	CCOc1ccccc1NC(=O)CSc1nc2c(c(=O)n1C)SC(C)C2 (stereo not given)	15.7	1.0
24	Cc1ccccc1OCC(=O)OCC(=O)Nc1ccc(S(N)(=O)=O)cc1	17.2	-0.9
25	Cc1ccc(NCCC(=O)c2ccccc2)cc1Cl	12.8	-1.8
26	CCOc1ccc(Cc2nc(-c3nonc3N)no2)cc1OCC	26.0	0.2
27	Cc1occc1-c1nnc(SCC(=O)Nc2ccc3c(c2)OCO3)n1CC1CCCO1 (stereo not given)	16.5	0.2
28	CC1(C)Cc2c(sc3nc(-c4ccccc4)n(N)c(=O)c23)CO1	5.5	0.7
29	Cc1nc2cc(Nc3nnc(-c4ccccc4)c4ccccc34)ccc2n1C	43.9	-1.3
30	CC(C)(C)c1ccc(-c2nc(C=O)c3ccccn23)cc1	20.7	-1.4
31	CC(=O)NC1CCN(CC(=O)Nc2nccs2)CC1	-10.3	1.0
32	O=C1c2nc3cc(-c4ccccc4)[nH]n3c(=O)c2CN1Cc1ccccc1	2.5	-1.1
33	COc1ccc(OC)c(NC(=O)CCc2nnc3ccc(N4CCC(C)CC4)nn23)c1	13.9	-0.9
34	O=C(c1ccc(NC(=S)NCc2ccco2)cc1)N1CCCCC1	12.1	1.2
35	CCN1CCN(CC(=O)Nc2ccc3c(c2)OCO3)C(=O)C1=O	14.4	-1.3
36	Cn1c(=O)c2c(ncn2CC(=O)OCC(=O)Nc2cc(Cl)ccc2Cl)n(C)c1=O	-10.3	-3.1
37	Cc1nnc(NC(=O)c2cc3ccccc3o2)s1	7.5	-1.3
38	COc1cccc(CN2CCN(Cc3cc4ccccc4[nH]3)CC2CCO)c1 (stereo not given)	4.6	-0.6
39	CCc1ccc(C(C)NC(=O)c2ccc(F)cc2)cc1 (stereo not given)	-3.2	0.0
40	CC(=O)c1ccc(NC(=O)NNS(=O)(=O)c2ccc(F)cc2)cc1	16.5	-0.1
41	O=C(CC(c1ccccc1)c1ccccc1O)NCc1ccco1 (stereo not given)	15.8	-1.6
42	O=P(c1cccs1)(c1cccs1)c1cccs1	26.3	-0.3
43	COc1ccc(/C=N/NC(=O)c2cccc(NC(=O)c3ccc(Cl)cc3)c2)c(OC)c1	13.8	-0.9
44	O=C(NC1CC1)C1CCCN1S(=O)(=O)c1ccc2ccccc2c1 (stereo not given)	28.2	-1.5
45	Cc1cc(C)c2cc(CN(CCCN(C)C)C(=S)NCc3ccccc3)c(=O)[nH]c2c1	7.5	-0.1
46	COC(=O)/C=C1\S/C(=N\N=C\CC(=O)OC)NC1=O	8.3	-3.5
47	COc1cc(C2C(C(C)=O)=C(O)C(=O)N2Cc2ccccc2)ccc1O (stereo not given)	x	-1.2
48	O=[N+]([O-])c1ccc(COc2cccnc2)cc1	38.0	-0.3
49	C=CCNC(=O)C1CCN(S(=O)(=O)c2cccs2)CC1	9.3	-0.5
50	CCN1CCN(C(=S)Nc2cccc(Cl)c2)CC1	24.3	-0.4
51	O=C(O)Cn1c(-c2ccccc2)cc2ccccc21	4.9	0.0
52	COc1ccccc1NC(=O)CCCC(=O)OCC(F)(F)C(F)F	-3.4	-3.6
53	COc1ccccc1OS(=O)(=O)c1ccc(NC(C)=O)cc1	13.9	x
54	O=C1CCCN2N=C(SCC(=O)N3CCCCC3)SC2=N1	14.7	0.0
55	CN1CCS/C1=C/C=C1/SC(=S)N(Cc2ccccc2)C1=O	21.0	0.1
56	CCCc1cc(C(=O)Nc2cccnc2)no1	6.7	-0.2
57	O=C(CN1CCN(S(=O)(=O)c2ccccc2)CC1)Nc1ccc(Cl)c([N+](=O)[O-])c1	23.2	0.5
58	CC1(C)CC(=O)C2=C(C1)N(c1ccccc1C#N)C(N)=C(C#N)C2c1cccs1 (stereo not given)	16.6	-0.5
59	O=CN1CCN(C(=O)c2cccc3c2-c2ccccc2C3=O)CC1	24.8	-1.5
60	O=C1Nc2ccccc2/C1=C/c1cnc(-c2ccccc2)[nH]1	25.4	6.2

(61) CCOCCN(C(=O)COC)c1cccc(OC)c1
(62) COc1ccc(-c2[nH]ncc2CN(C)C(C)c2ccon2)cc1F (stereo not given)
(63) O=C(NCC(c1cccs1)N1CCOCC1)c1ccc(Cl)cc1 (stereo not given)
(64) CC(C)CN(C(=O)CN1CCOCC1)c1c(N)n(CC(C)C)c(=O)[nH]c1=O
(65) COc1ccc(N(CC(=O)N2CCc3ccccc32)S(=O)(=O)c2c(C)n[nH]c2C)cc1
(66) O=C(Nc1ccc2c(c1)CCC2)c1ccccc1F

compound no.,61,62,63,64,65,66
OX1R FRET antag,13.4,4.8,16.8,0.4,22.3,44.8
STK33 inh,-0.9,-0.5,-0.5,-0.6,-0.4,0.8

(67) COc1ccc(Nc2nc(C)nc3c2oc2ccccc23)cc1
(68) COc1ccc2[nH]c(=O)c(CN(CCO)S(=O)(=O)c3ccc(C)cc3)cc2c1
(69) O=C(Nc1cccc(F)c1)NC1CCCCC1
(70) CCCS(=O)(=O)c1c(S(=O)(=O)CCC)c2c(N)cccn2c1C(=O)OC
(71) CCOc1ccc(CCNC(=O)c2cccc(S(=O)(=O)N3CCN(C(C)=O)CC3)c2)cc1OCC
(72) CCOC(=O)c1cnc(SCc2ccc(C(C)(C)C)cc2)nc1N

compound no.,67,68,69,70,71,72
OX1R FRET antag,23.4,0.2,9.6,26.3,11.1,6.1
STK33 inh,1.1,-0.3,-0.4,0.5,-0.9,-0.7

(73) COc1ccc(C(=O)Nc2ccc(S(=O)(=O)Nc3nccc(C)n3)cc2)cc1
(74) C=COCCNC(=O)Nc1ccc(Cl)c(Cl)c1
(75) O=C(NC1CCCCC1)C(c1ccccc1)N(C(=O)Cc1ccsc1)c1ccccc1 (stereo not given)
(76) Cc1noc(NC(=O)c2ccc(Cl)cc2)c1Cl
(77) CCc1ccc(OCC(O)CN2CCCC2)cc1 (stereo not given)
(78) Cc1cnc(C(=O)N2CCCC(C(=O)c3ccc(C(F)(F)F)cc3)C2)cn1 (stereo not given)

compound no.,73,74,75,76,77,78
OX1R FRET antag,2.8,12.8,22.8,8.0,11.6,7.8
STK33 inh,0.1,0.0,-2.8,-0.6,-0.1,1.2

(79) COc1ccc(CCNC(=O)C2CCN(S(=O)(=O)c3ccc(C)cc3)CC2)cc1OC
(80) COc1cccc(C(=O)c2ncc(C(F)(F)F)cc2Cl)c1
(81) COC(=O)C(C)NC(=O)C12CC3CC(CC(C3)C1)C2 (stereo not given)
(82) COC(=O)c1cc(NC(=O)c2ccc(OC)cc2)c(=O)oc1C
(83) O=[N+]([O-])c1ccc(-c2cn3nc(-c4ccccc4)c(-c4ccccc4)nc3n2)cc1
(84) N#Cc1sc2nc(-c3cccs3)cc(-c3ccccc3)c2c1N

compound no.,79,80,81,82,83,84
OX1R FRET antag,x,3.9,6.1,12.5,1.7,6.2
STK33 inh,-0.3,-0.8,-6.6,-2.0,-0.5,-0.5

(85) CC(C)OCC(O)CN1CCN(C(c2ccccc2)c2ccccc2)CC1 (stereo not given)
(86) CCOC(=O)CSc1nc(C)cc(C)c1C(N)=O
(87) CCC(C)(C)NC(=O)C(c1ccc(OC)cc1)N(C(=O)CCC(=O)Nc1cc(C)on1)c1cccc(F)c1 (stereo not given)
(88) COc1ccc(OC)c(C(O)c2nc3ccccc3n2C)c1 (stereo not given)
(89) O=C(c1ccccc1)c1ccc2cc(O)ccc2c1
(90) Cn1ncc(Br)c1C(=O)N1CCCCCC1

compound no.,85,86,87,88,89,90
OX1R FRET antag,10.6,8.7,22.5,25.1,8.5,2.2
STK33 inh,-1.2,0.0,-1.0,6.0,13.8,-1.5

Copied from above, entries 89–90
(89) O=C(c1ccccc1)c1ccc2cc(O)ccc2c1
(90) Cn1ncc(Br)c1C(=O)N1CCCCCC1

compound no.,89,90
OX1R FRET antag,8.5,2.2
STK33 inh,13.8,-1.5

Other results follow:
(91) CC(C)(C)C(=O)Nc1ccccc1C(=O)NCCCn1ccnc1
(92) O=C1C=C(N2CCCCCC2)C(=O)N1c1ccc(Cl)cc1
(93) NS(=O)(=O)c1ccc(CCNC(=O)CSc2ccc(Cl)cc2Cl)cc1
(94) COC(=O)c1cc(NC(=O)CN(c2ccc3c(c2)OCO3)S(C)(=O)=O)ccc1Cl
(95) Cc1nc2ccccc2c2oc(C(=O)N3CC(C)CC(C)C3)cc12 (stereo not given)
(96) CCCN1CCN(S(=O)(=O)c2ccc3c(c2)NC(=O)C(C)C(=O)N3)CC1 (stereo not given)

compound no.,91,92,93,94,95,96
OX1R FRET antag,19.1,x,1.0,24.3,23.5,17.0
STK33 inh,0.3,-1.6,0.1,-0.8,0.1,-1.1

(97) CCSc1nnc(-c2cccnc2)n1-c1ccc(Cl)c(C)c1
(98) Cc1cccc(NC(=O)CSCC(=O)N(C)Cc2c(F)cccc2Cl)c1
(99) COc1ccc(N2CCN(Cc3cc(OC)c(O)c([N+](=O)[O-])c3)CC2)cc1
(100) O=[N+]([O-])c1cccnc1N1CCCCC1
(101) COc1ccc(C2=NN(C(=O)c3cccs3)C(c3ccccc3O)C2)cc1 (stereo not given)
(102) CCN(CC)CC(C)CNC(=O)CC(C(=O)N1CCc2ccccc21)n1ccnc1 (stereo not given)

compound no.,97,98,99,100,101,102
OX1R FRET antag,5.9,12.9,20.5,15.7,19.5,9.3
STK33 inh,-1.3,0.9,-1.8,-1.3,0.2,0.7

Of the compounds above, three contain a COOH group.
(15) CCCCC(=O)NC(=S)Nc1cc(C(=O)O)ccc1OC
(16) CCOc1cc(CC(=O)N[C@@H](CC(C)C)c2ccccc2N2CCCCC2)ccc1C(=O)O
(51) O=C(O)Cn1c(-c2ccccc2)cc2ccccc21

compound no.,15,16,51
OX1R FRET antag,13.8,14.2,4.9
STK33 inh,-0.4,-4.1,0.0

3 of the entries above in order of the OX1R FRET antag value, lowest first.
(97) CCSc1nnc(-c2cccnc2)n1-c1ccc(Cl)c(C)c1
(98) Cc1cccc(NC(=O)CSCC(=O)N(C)Cc2c(F)cccc2Cl)c1
(101) COc1ccc(C2=NN(C(=O)c3cccs3)C(c3ccccc3O)C2)cc1 (stereo not given)

compound no.,97,98,101
OX1R FRET antag,5.9,12.9,19.5
STK33 inh,-1.3,0.9,0.2

Next part.
(103) CC(=O)NC(O)C(=O)c1ccccc1 (stereo not given)
(104) NNC(=O)c1oc2nc(-c3ccco3)cc(-c3ccco3)c2c1N
(105) Cc1nn(Cc2ccccc2Cl)c2sc(C(=O)Nc3nccs3)cc12
(106) Cc1ccc2c(n1)CC(C)(C)C/C2=N\O
(107) O=C(COC(=O)c1cc(-c2cccc(Br)c2)nc2ccccc12)NCC1CCCO1 (stereo not given)
(108) NS(=O)(=O)c1ccc(NC(=O)COC(=O)CCc2c[nH]c3ccccc23)cc1

compound no.,103,104,105,106,107,108
OX1R FRET antag,-3.4,18.5,38.9,4.4,86.4*,25.3
STK33 inh,0.5,-0.2,0.2,0.2,-1.1,-0.6

(109) O=C(CNC(=O)c1cccs1)OCc1c(F)cccc1Cl
(110) COc1ccc(S(=O)(=O)N(C)CC(=O)Nc2cccc(C(C)=O)c2)cc1
(111) COc1ccc(N(C(=O)c2ccccc2)S(=O)(=O)c2cccs2)cc1
(112) CC1CC(C)CN(C(=O)c2cc(S(=O)(=O)N3CCCCC3)ccc2Cl)C1 (stereo not given)
(113) CCCn1cc(S(=O)(=O)c2ccc(OC)cc2)c(=O)c2cc(OC)ccc21
(114) CCN1CCc2nc(SCC(=O)Nc3ccc(OC)cc3)c(C#N)cc2C1
(115) COc1ccccc1C(=O)Nc1cc(Cl)ccc1-n1cncn1
(116) O=c1oc2ccc3ccccc3c2cc1-c1nnc(-c2cccs2)o1

compound no.,109,110,111,112,113,114,115,116
OX1R FRET antag,21.7,19.3,22.5,19.9,30.5,40.6,48.1,10.3
STK33 inh,1.0,-0.9,0.8,-0.7,0.4,1.9,1.6,x

From PubChem

Some of the compounds tested, and most or all hits are left out here.
